Screens from PubChem BioAssay.
TRPML1 blocker: qHTS for Inhibitors of the Human Mucolipin Transient Receptor Potential 1 (TRPML1); TRPML1-inducible cells, Ca2+ dye fluorescence, FDSS; stronger effect = lower value; inhibition of EC80 agonist-evoked calcium signal; activity change, negative = inhibition, % (no concentration beside the values); actives 0.02% (n = 390,000); AID 624415, 2012; in the data active means activity change below about -50%; inconclusive means about -30% to -50%; inactive means above about -30%;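 note: stimulus is agonist 54-4 at its EC80 concentration; % is set by controls: 0 for no effect and ±100 for the full control effect; compound concentration not given in the record; the text of the record puts the active cut at -80%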
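TRPML1-DL cells, Tet-induced overnight (~16 h, 37 °C) at 1,500 cells/well, were loaded with Ca8 no-wash dye plus quencher for 45-90 min at room temperature. Compounds were pinned during FDSS kinetic reading; agonist 54-4 at EC80 (4 uM final) then added.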
D2 agonist: Beta-Arrestin HTS for Positive Allosteric Modulators of the Human D2 Dopamine Receptor: Agonists. AID 624465, 2012. activation, % (concentration not given with the values). DiscoveRx PathHunter D2 beta-arrestin, luminescence, 90 min; 100% = 57 uM dopamine signal. D(2) dopamine receptor (Homo sapiens), P14416. actives 0.084% (n = 360,000); in the data active = activation above about 40%; inconclusive = about 15% to 40%; inactive = below about 15%; note: compound concentration not given in the record; the text of the record calls up to 30% inactive
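DiscoveRx PathHunter D2 beta-arrestin cells (2,100/well) attached overnight, then compound-stimulated 90 min at 37 C in HBSS/10 mM HEPES/0.1% Tween-20 buffer; beta-galactosidase complementation read by luminescence after 1 h at ambient temperature. Dopamine 57 uM final (EC100) as control.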
TRPML1 ag: qHTS for Agonists of the Human Mucolipin Transient Receptor Potential 1 (TRPML1); activation, % (test concentration not listed); TRPML1-expressing cells, Ca2+ dye fluorescence, FDSS; host cell line not named in the record; reference of the full effect not given here; actives 0.12% (n = 410,000); Mucolipin-1 (Homo sapiens), Q9GZU1; in the data active = activation above about 50%; inconclusive = about 30% to 50%; inactive = below about 30%; note: 0% is about no effect; the text of the record puts the active cut at 80%
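TRPML1-DL cells, Tet-induced overnight (~16 h, 37 degrees C), loaded 45-90 min at room temperature with Ca8 no-wash calcium dye plus quencher. FDSS fluorescence: 10 s baseline, compound pin-transfer, 110 s agonist read, then EC80 54-4 (4uM final) and 110 s antagonist read.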
CtBP-E1A blk: qHTS Assay for Inhibitors of the CtBP/E1A Interaction. CtBP / adenovirus E1A interaction (AlphaScreen). AlphaScreen GST-E1A/His-CtBP binding, 1536-well; stronger effect = lower value; control for the full effect not named in the record. activity change, % (test concentration not listed). actives 0.49% (n = 340,000). AID 651724, 2012; in the data active means activity change below about -65%; inconclusive means about -30% to -65%; inactive means above about -30%; note: % is set by controls: 0 for no effect and ±100 for the full control effect; compound concentration not given in the record
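Steps: dispense buffer (Tris pH 8.0, NaCl 300 mM, TCEP 1 mM, BSA, Tween 20); add 5X protein mix (GST-E1A, His-CtBP, 125 nM each); pin 23 nL compound; 2 h at 37 °C, dark; add 5X beads (50 ug/mL); 1 h; read.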
Six1-Eya2 blk: qHTS Assay for Inhibitors of the Six1/Eya2 Interaction; activity change, % (test concentration not listed); AlphaScreen GST-Six1/His-Eya2 binding, biochemical; stronger effect = lower value; control for the full effect not named in the record; actives 0.56% (n = 360,000); Homeobox protein SIX1 (Homo sapiens) + Protein phosphatase EYA2 (Homo sapiens), …; in the data active = activity change below about -65%; inconclusive = about -30% to -65%; inactive = above about -30%; note: % is set by controls: 0 for no effect and ±100 for the full control effect; compound concentration not given in the record
Target sequence (O00167 whole entry, looked up): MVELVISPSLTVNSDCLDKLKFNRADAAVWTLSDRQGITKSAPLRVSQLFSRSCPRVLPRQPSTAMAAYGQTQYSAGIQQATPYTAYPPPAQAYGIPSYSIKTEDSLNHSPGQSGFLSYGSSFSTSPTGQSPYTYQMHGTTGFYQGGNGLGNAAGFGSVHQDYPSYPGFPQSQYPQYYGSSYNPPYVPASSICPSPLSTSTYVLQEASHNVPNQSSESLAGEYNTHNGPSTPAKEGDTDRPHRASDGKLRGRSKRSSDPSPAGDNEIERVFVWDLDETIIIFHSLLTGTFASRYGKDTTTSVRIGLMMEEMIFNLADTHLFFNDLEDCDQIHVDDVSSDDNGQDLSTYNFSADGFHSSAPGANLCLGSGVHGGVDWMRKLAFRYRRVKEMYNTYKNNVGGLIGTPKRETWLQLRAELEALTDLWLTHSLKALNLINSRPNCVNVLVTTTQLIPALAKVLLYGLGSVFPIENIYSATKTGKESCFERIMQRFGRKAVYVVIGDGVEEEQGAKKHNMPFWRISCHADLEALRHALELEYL
Target sequence (Q15475 whole entry, looked up): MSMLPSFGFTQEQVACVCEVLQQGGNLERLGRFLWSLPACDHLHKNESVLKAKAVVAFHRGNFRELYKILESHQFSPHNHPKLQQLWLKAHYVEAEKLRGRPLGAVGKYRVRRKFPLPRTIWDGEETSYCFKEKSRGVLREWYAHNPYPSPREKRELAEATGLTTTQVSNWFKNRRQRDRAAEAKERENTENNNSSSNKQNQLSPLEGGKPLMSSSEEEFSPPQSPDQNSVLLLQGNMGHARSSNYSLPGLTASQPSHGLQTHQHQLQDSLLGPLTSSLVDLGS
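AlphaScreen with GST-Six1 and His-Eya2 (5X mix: 250 nM and 500 nM), glutathione donor and nickel acceptor beads; buffer 50 mM Tris pH 8.0, 300 mM NaCl, 1 mM TCEP; 1 h at 37 C in the dark.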
PINK1 expr mod: A Quantitative High throughput Screen to Identify Chemical Modulators of PINK1 Expression; PINK1 immunofluorescence, high-content cytometry, 24 h; Potency, µM (highest dose often 76.6 µM), without a hit: top-dose activation (PINK1 increase), usual class: activators; actives 0.2% (n = 410,000); active = well fitted activation curve with a large enough effect; inconclusive = small, poorly fitted or top-dose-only effect; inactive = flat fitted curve, though single readings scatter; cell line not stated here;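 note: potency is the fitted concentration of half-maximal effect; % of control where 0% means no effect; nearly all actives have a fitted effect of over 65% in size; a mitochondrial uncoupler was the plate control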
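Stable cell line treated 24 h with compounds at 5 concentrations (CCCP controls), then fixed and immunostained for PINK1 plus nuclear and cell stains; PINK1 immunofluorescence quantified by laser-scanning microplate cytometry.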
The depositor's hits bear a star; u = inconclusive; x = not tested or not shown; [ ] = remark or other dose.

SMILES	TRPML1 blocker	D2 agonist	TRPML1 ag	CtBP-E1A blk	Six1-Eya2 blk	PINK1 expr mod
CCN(CC)C(=O)C1=C(C)Nc2nnnn2C1c1cccnc1 (stereo unspecified)	-6	1.0	0.8	10	6	0.5%
CCN(CC)C(=O)Cn1c(SCC(=O)Nc2ccc(C)c(C)c2)nc2ccccc21	6	x	0.8	x	x	1.8%
O=C(Nc1ccc2c(c1)oc1ccc(S(=O)(=O)N3CCCC3)cc12)C1CC1	9	-1.6	1.4	-4	-8	-1.0%[38.3 µM]
CC(C)n1c(CN2CCN(C)CC2)nc2c1c(=O)n(C)c(=O)n2C	5	0.4	-0.2	4	2	0.4%
CCOC(=O)C(=CNc1cscc1S(=O)(=O)C(C)C)C(=O)OCC	-9	0.1	0.8	5	-3	0.9%
O=C(c1ccc2c(c1)OCO2)c1ccc[nH]1	-2	-1.0	-0.6	0	-1	0.3%
Cc1ccc(S(=O)(=O)c2c(C)cc(C)nc2N2CCCC2)cc1	0	-2.7	0.7	2	4	1.0%
O=C(Cc1nn[nH]n1)NCc1ccccc1Cl	4	-1.0	2.5	3	-3	0.5%
COc1ccc(/C=N/NC(=O)CN2CCSCC2)cc1C	-10	-0.9	0.5	7	2	0.7%
CC(C)c1ccccc1NC(=O)COC(=O)c1c2c(nc3ccccc13)CCN(Cc1ccccc1)C2	-7	6.3	-0.3	x	-15	-0.6%
CN1CCN(c2ccc(CNS(=O)(=O)c3ccsc3)cc2)CC1	-7	-4.3	-0.7	x	5	1.4%
Cc1ccccc1C(=O)Nc1cccc(OCc2cc(=O)n3c(C)csc3n2)c1	-3	x	-0.6	x	x	5.7%
CSc1nc(O)c(Nc2ccccc2)c(=O)[nH]1	-3	1.2	-0.6	3	2	-1.3%
CC(=O)N(c1ccccc1C)S(=O)(=O)c1ccc(Cl)cc1	-23	0.1	1.5	0	3	-1.7%
COC(=O)c1c(-c2ccc(C)cc2)csc1NC(=O)Cc1ccc(OC)c(OC)c1	53	7.6	0.1	-2	-15	-0.9%
COc1ccc(S(=O)(=O)Nc2cccc3c2O[C@H](CN(C)C)[C@@H](C)CN([C@H](C)CO)C3=O)cc1	2	-1.8	-0.4	7	5	-1.0%
O=c1cc2c(c(-c3ccccc3)n1Cc1ccccc1)[C@H](CCO)NC2	-1	2.5	-0.7	4	5	-0.4%
O=C1OCCN1C(=O)[C@H]1[C@H](c2ccc([N+](=O)[O-])cc2)C(c2ccc(F)cc2)=NN1c1ccccc1	-3	3.9	-0.7	2	3	-0.6%
CC1(C)CC(=O)c2cnc3c(C#N)cnn3c2C1	2	-3.1	0.1	4	-7	0.9%
CN(C(=O)CN1C(=O)/C(=C/c2ccccc2Cl)SC1=S)C1CCS(=O)(=O)C1 (stereo unspecified)	0	0.0	-0.8	1	-6	4.0%
Cn1ccnc1SCC(=O)Nc1cc(F)ccc1F	-1	-2.5	-0.9	6	2	0.8%
C=CCNc1nc(Nc2ccc([N+](=O)[O-])cc2)nc(OCC)n1	1	-2.7	0.4	-22	-17	0.3%
CCc1cc2c(-c3ccccc3)cc(=O)oc2cc1OC(C)C(=O)NCC1CCC(C(=O)O)CC1 (stereo unspecified)	x	7.5	x	-3	-4	1.8%
COc1cc2c(C#N)c(N3CCN(c4ccccc4OC)CC3)nc(N)c2c(N)n1	4	4.9	0.2	-2	-2	-1.1%
COc1cccc(NC(=O)c2cc(C(=O)Nc3cccc(OC)c3)n(C)n2)c1	11	u	0.7	-4	-1	-0.5%
Cc1cc2cc(CN3C(=O)c4ccccc4C3=O)ccc2n1C	-4	-1.3	0.9	-3	-15	11%
O=C(CCSCCc1ccccn1)Nc1c(F)cc(F)cc1Br	3	3.1	-0.4	4	3	-0.1%
Cn1nc(C(=O)NCc2ccccn2)c2ccccc2c1=O	-4	-0.6	0.7	-6	-4	-2.1%
Cc1ccc(C)c(SCC(=O)NC(=O)NCc2ccccc2)c1	-6	-0.8	5.0	13	9	1.3%
Cc1nn(-c2ccccc2)c(N)c1N=Nc1ccccc1	40	-3.9	3.2	-21	-25	13%
Cc1ccc2c(COC(=O)c3ccc(C)c(C)c3)cc(=O)oc2c1	19	-4.5	0.3	1	0	5.8%
COc1ccccc1CN(Cc1nc2ccccc2c(=O)[nH]1)C(=O)Nc1cccc(C)c1	19	-4.1	0.3	3	-2	3.2%[38.3 µM]
CNc1nc(Nc2ccc(C)cc2C)c2sccc2n1	x	-2.9	8.1	3	-4	4.8%
Cc1ncc(S(=O)(=O)c2ccccc2)c(-c2ccccc2)n1	-10	-4.1	-0.7	-4	-2	-1.8%
COc1cc(/C(C#N)=C/c2cccc3ccccc23)c([N+](=O)[O-])cc1OC	2	-0.3	1.5	-7	-3	6.1%
COCCNC(=O)CN(Cc1ccc(Cl)cc1)S(C)(=O)=O	5	-1.2	0.1	5	2	0.8%[38.3 µM]
CCSc1nnc(N2C(=O)CC(c3ccsc3)C3=C2CC(C)(C)CC3=O)s1 (stereo unspecified)	14	-1.2	0.9	-1	2	-0.1%
O=C(NCCC1=CCCCC1)C1CCN(C(=O)c2ccc(Br)cc2)CC1	15	-1.0	-0.8	-10	5	-0.9%
Cc1cccc(-n2ncc3c2CCCC3NC(=O)C2=CC(=O)CC(C)(C)O2)c1C (stereo unspecified)	5	1.3	-0.8	0	-10	1.1%
COc1ccc(-n2ncc3c(=O)n(CC(=O)Nc4ccc5c(c4)OCCO5)cnc32)cc1	-6	-5.0	-0.3	-16	-8	8.0%
Clc1ccc2oc3c(Cl)ncnc3c2c1	-2	5.2	-0.3	1	-18	0.8%
COc1ccc(-c2cn(-c3cccc(C)c3)c(=O)[nH]2)cc1OC	-4	-4.4	-0.4	2	3	4.2%
C/C(=N\Nc1ccc([N+](=O)[O-])cc1)c1ccc(C#N)cc1	34	-0.3	-0.4	9	14	4.7%
COc1ccc(-n2nnnc2SCc2nc3ccccc3s2)cc1	39	0.1	1.4	6	-1	0.2%
COc1cc(OC)c2c(-c3ccccc3)cc(=O)oc2c1	x	-5.8	x	-20	3	1.0%
CN(CCNC(=O)C1CCN(c2ncnc3c2nc2n3CCCCC2)CC1)Cc1ccccc1	24	-2.8	2.2	-17	1	-0.2%
Cc1cc(C(=O)NCc2ccccc2F)c2ccccc2n1	-4	4.0	0.1	3	5	2.5%
O=C(O)c1cc(S(=O)(=O)N2CCCC2)ccc1Br	0	-0.2	2.3	6	6	0.7%[38.3 µM]
CCC(=O)Nc1ccc(NC(=O)c2ccccc2)nc1	0	-1.5	-0.1	x	-4	-1.5%
Cc1sc2ncnc(NCc3ccccc3)c2c1C	-12	0.4	-0.6	3	-10	5.1%
CCC(=O)Nc1cc(C(=O)O)ccc1Sc1ccc(Cl)cc1	22	-2.7	0.4	0	-2	-0.1%
CCN(Cc1ccccc1)C(=O)CN1C(=O)COc2ccc(S(=O)(=O)N(CC)CC)cc21	9	x	0.4	x	x	0.3%
Cc1ccccc1NC(=O)CSc1nc2c(c(=O)n(C)c(=O)n2C)n1C	-2	0.2	0.4	2	-3	0.8%
COc1cccc(CNC(=O)C2CCC(CNS(=O)(=O)c3cccc4cccnc34)CC2)c1 (stereo unspecified)	24	-0.6	2.1	x	-4	-0.4%
Cc1ccc(C(C)C)c(Oc2cnccn2)c1	x	-1.6	x	3	25	0.8%
COC(=O)c1ccc(NC(=O)c2cccc(C)c2[N+](=O)[O-])cc1	1	-1.7	0.9	x	7	-0.1%
CC(C)(C)OC(=O)n1cc(/C=N/NC(=O)c2ccco2)c2ccccc21	17	-1.7	-0.6	-9	-9	0.0%
COc1cccc(C(=O)OCCN2C(=O)c3ccccc3C2=O)c1OC	-14	-4.0	1.6	0	4	-2.4%
CCOC(=O)N1CCN(S(=O)(=O)c2ccc(C(=O)N(CCCN(C)C)c3nc4ccc(CC)cc4s3)cc2)CC1	47	-5.2	0.2	-23	-14	-1.0%
CCCC(=O)Nc1ccc2c(c1)Cc1ccccc1-2	20	-3.7	1.0	1	1	-1.1%

The list continues.
SMILES	TRPML1 blocker	D2 agonist	TRPML1 ag	CtBP-E1A blk	Six1-Eya2 blk	PINK1 expr mod
O=C1N/C(=N\N=C\c2cccs2)SC1Cc1ccc(Cl)cc1 (stereo unspecified)	7	-1.2	0.2	-6	-2	7.7%
Cc1ccc(S(=O)(=O)N(C)C)cc1NC(=O)c1cc(-c2ccco2)nc2ccccc12	0	-0.2	0.1	0	-13	3.1%
Cn1c(Cn2cnc([N+](=O)[O-])n2)nnc1SCC(=O)Nc1ccccc1	11	0.3	-1.2	5	4	0.1%
COc1ccc(OC)c(CNC(=O)C2CCN(S(C)(=O)=O)CC2)c1	1	1.7	0.4	2	6	2.4%
COc1ccccc1C(=O)Nc1ccc(C(=O)Nc2ccccc2C(=O)O)cc1	48	6.3	2.4	u	u	1.3%
O=C1OC(C(=O)Nc2ccccc2)Cc2ccccc21 (stereo unspecified)	-21	-1.7	0.2	-20	-10	4.8%
COc1ccc(-c2nc(CS(=O)CC(=O)NCCCN3CC(C)CC(C)C3)c(C)o2)cc1OC (stereo unspecified)	24	0.2	0.0	-1	2	16%[38.3 µM]
NS(=O)(=O)c1ccc(CCNC(=O)C(=O)c2cn(CC(=O)N3CCCC3)c3ccccc23)cc1	-17	2.9	0.1	0	-1	1.0%
Cc1occc1-c1nnc(SCC(N)=O)n1Cc1ccccc1	2	-3.0	2.7	-5	-1	-1.4%[38.3 µM]
O=C(Nc1ccccc1)OCCCc1ccccc1	12	-1.1	-0.7	22	19	2.5%
C/C(=N\NC(=O)Cc1cc(=O)[nH][nH]1)c1cccc([N+](=O)[O-])c1	2	-5.2	0.1	-6	-11	0.8%
Cc1cc(C)cc(N(C(=O)c2csnn2)C(C(=O)NC(C)(C)C)c2cccnc2)c1 (stereo unspecified)	12	1.8	0.1	5	7	-1.3%

Some of these compounds in order of length of the SMILES, descending:
SMILES	TRPML1 blocker	D2 agonist	TRPML1 ag	CtBP-E1A blk	Six1-Eya2 blk	PINK1 expr mod
Cc1ccc(S(=O)(=O)N(C)C)cc1NC(=O)c1cc(-c2ccco2)nc2ccccc12	0	-0.2	0.1	0	-13	3.1%
C/C(=N\NC(=O)Cc1cc(=O)[nH][nH]1)c1cccc([N+](=O)[O-])c1	2	-5.2	0.1	-6	-11	0.8%
Cc1occc1-c1nnc(SCC(N)=O)n1Cc1ccccc1	2	-3.0	2.7	-5	-1	-1.4%[38.3 µM]

Outcome played no part in choosing rows (roughly 1% active in at least one column).
